Screening data (PubChem BioAssay)
MT1-MMP act inh: blocks activation of human MT1-MMP | HT1080 RFP-PRO-GFP cells, GFP/RFP ratio fluorescence, overnight; percent of plate control window, DMSO zero | GFP/RFP ratio change, % at 20 µM | 360,000 compounds, 0.061% hits;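 active = GFP/RFP ratio change of at least 30% with cell ATP level not reduced by more than half and red fluorescence within 50% of control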; note: strong numbers were not always called active
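Read-out: GFP/RFP fluorescence ratio; Test system: RFP-PRO-GFP reporter HT1080 cells; Compound dosing: single-point 20 µM compound, 1% DMSO; Times: overnight compound exposure at 37 °C.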
PABP polyA inh: PABP-poly(A) binding inhibition; PABP-poly(A) RNA binding, fluorescence polarization; inhibition, % at 35 µM; 290,000 compounds, 1% hits; AID 2014;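 active = 50% or more with normal probe brightness, or confirmed in later tests; inconclusive = above 50% with abnormal brightness, or retests that disagree; inactive = below 50% or failed in later tests; about a fifth of its hits are not listed in these tables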;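 note: calls also rest on retests at 20 µM and on dose response follow-up; controls were probe without protein and protein plus probe with vehicle; some compounds called inactive have numbers as strong as hits; many hits fall short of the cut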
Target sequence (P11940 whole entry, looked up): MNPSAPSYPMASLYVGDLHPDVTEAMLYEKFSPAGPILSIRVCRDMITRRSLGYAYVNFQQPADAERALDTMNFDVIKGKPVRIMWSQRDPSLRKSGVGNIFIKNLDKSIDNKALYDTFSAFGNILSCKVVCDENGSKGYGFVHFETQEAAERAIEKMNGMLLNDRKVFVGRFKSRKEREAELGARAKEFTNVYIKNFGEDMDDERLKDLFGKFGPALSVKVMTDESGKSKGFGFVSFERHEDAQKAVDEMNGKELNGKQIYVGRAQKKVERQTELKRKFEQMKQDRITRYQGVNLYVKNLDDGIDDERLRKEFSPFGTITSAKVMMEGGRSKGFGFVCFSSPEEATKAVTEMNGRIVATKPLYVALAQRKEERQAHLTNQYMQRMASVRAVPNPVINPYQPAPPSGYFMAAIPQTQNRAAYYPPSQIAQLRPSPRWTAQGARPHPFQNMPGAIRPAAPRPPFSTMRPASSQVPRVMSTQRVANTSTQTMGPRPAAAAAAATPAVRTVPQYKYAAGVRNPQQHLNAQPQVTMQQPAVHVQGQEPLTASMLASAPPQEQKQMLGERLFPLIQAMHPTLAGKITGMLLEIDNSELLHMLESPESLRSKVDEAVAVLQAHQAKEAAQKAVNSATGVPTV
Rce1 inh: yeast Ras-converting enzyme inhibition | Q03530 | yeast membranes, quenched prenylated peptide cleavage fluorescence | calls only | 290,000 compounds, 0.27% hits;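 active = fall in fluorescence gain of 50% or more versus controls, with final raw signal at or below 3038400; inconclusive = same 50% fall but final raw signal above 3038400; inactive = fall in fluorescence gain under 50%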;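 note: plate controls were neutral control wells for no effect and wells lacking membranes for full effect; tested at 10 µM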
Target sequence (Q03530 whole entry, looked up): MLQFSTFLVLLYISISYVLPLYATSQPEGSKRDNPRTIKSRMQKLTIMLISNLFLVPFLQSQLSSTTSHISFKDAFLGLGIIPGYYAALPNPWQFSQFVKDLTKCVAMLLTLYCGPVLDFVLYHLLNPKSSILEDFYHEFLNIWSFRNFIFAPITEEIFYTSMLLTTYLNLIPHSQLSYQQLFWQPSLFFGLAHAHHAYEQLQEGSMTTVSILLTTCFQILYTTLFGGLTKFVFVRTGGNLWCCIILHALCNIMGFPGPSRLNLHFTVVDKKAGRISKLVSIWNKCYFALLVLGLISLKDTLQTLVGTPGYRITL
Env fusion inh: inhibitors of HIV Env-mediated cell fusion | HeLa-JRFL Env/CEM21 cell fusion, luciferase | 360,000 compounds, 1.1% hits | inhibition, % at 12.3 µM;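 active = mean replicate inhibition score of at least 50 and every replicate individually at or above 50; inconclusive = only one of the two criteria met; inactive = mean below 50 and not all replicates reaching 50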;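 note: 0% = plate neutral controls and 100% = maraviroc near 300 nM; one replicate is shown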
UUG fidelity: yeast start codon fidelity modulation | S. cerevisiae UUG-firefly luciferase reporter, luminescence/redox ratio | activity score, % at 18.7 µM | 350,000 compounds, 0.13% hits;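 active = replicate mean at a twofold rise or more, about +100% in these data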;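 note: firefly luciferase made from a UUG start codon reports start codon fidelity; reporter light over untreated wells divided by growth signal over untreated wells; some hits fall short of that in this replicate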
CSC inhib: blocks cancer stem cells. AID 2717. cancer stem cell-like cells viability, luminescence. inhibition, % at 7.5 µM. 300,000 compounds, 1.1% hits;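 active = mean at 75% or more and at least half the replicates too; inconclusive = mean and replicates disagree; tested in HMLE shEcad cells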;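 note: 0% = median of negative and 100% = median of positive control wells; the first replicate is given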
eIF4H inh: inhibitors of RNA binding by human eIF4H; inhibition, % at 35 µM; AID 2012; eIF4H fluorescence polarization binding assay; 290,000 compounds, 0.94% hits; Q15056;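 active = 50% or more with normal probe brightness, or confirmed in later tests; inconclusive = above 50% with abnormal brightness, or retests that disagree; inactive = below 50% or failed in later tests; about a fifth of its hits are not listed in these tables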;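 note: calls also rest on retests at 20 µM and on dose response follow-up; 0% = protein and probe with vehicle and 100% = probe without protein; strong numbers were not always called active; many hits fall short of the cut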
eIF4H inh retest: recorded beside eIF4H inh, whose call it bears; inhibition, %; compound at 20 µM; confirmation average;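 mean of two retest wells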
PABP polyA inh retest: also measured in PABP polyA inh; calls as there; inhibition, %; compound at 20 µM; confirmation repeats;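 mean of two retest wells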
MT1-MMP act inh RFP: further read-out of MT1-MMP act inh, marked with its call; RFP signal change, %; measured here: RFP expression control read;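 0 = vehicle wells; hits needed this value within 50% of zero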
Active calls of the source: *; i = inactive; u = inconclusive; x = no result given; + = active, no number; & = joins results of further samples.

SMILES	MT1-MMP act inh	MT1-MMP act inh RFP	PABP polyA inh	Rce1 inh	Env fusion inh	UUG fidelity	CSC inhib	eIF4H inh	others
COc1cc(/C=C/C(=O)OCC(=O)N2CC(=O)Nc3ccccc32)ccc1O	7	-2	8	i	-18	x	4	-4
CC(Sc1nnc(CN2CCCC2)n1Cc1ccccc1)C(=O)Nc1ccc(F)cc1Cl (configuration not stated)	-5	-3	x	x	30	-18	x	x
O=C(Cc1nn[nH]n1)Nc1ccc(F)cc1F	3	6	1	x	u	-12	3	-4
CCSC1(SCC)N=C(N)C2(C#N)C(c3ccccc3)NC(C)=C(C)C12C#N (configuration not stated)	5	5	11	i	x	-12	x	14
CCc1cccc(OCC(=O)Nc2ccc(S(=O)(=O)N3CCCC3)cc2)c1	0	-3	-1	i	13	-1	x	-5
O=C(O)CCC(=O)N1CCC(C(=O)c2cccc(Cl)c2)CC1	4	2	0	i	x	-11	-13	-8
CN1CCN(S(=O)(=O)c2cccc(C#N)c2)C(c2ccccc2)C1 (configuration not stated)	-2	3	x	x	-21	8	x	x
O=c1cc(N2CCOCC2)[nH]c(=O)n1-c1ccc(Br)cc1	-1	5	7	i	4	-42	-24	-9
COc1cc(C2OCC3C(c4cc(OC)c(OC)c(OC)c4)OCC23)cc(OC)c1OC (configuration not stated)	-2	0	-5	i	x	3	-13	-2
O=C1Nc2ccccc2C12Nc1ccccc1-c1nc3ccccc3n12 (configuration not stated)	-2	-5	3	i	x	2	-16	-1
Cc1ccc(-c2nnn(CC(=O)N(c3ccccc3)C(C(=O)NCC3CCCO3)c3ccc(Cl)cc3)n2)cc1 (configuration not stated)	0	-6	-8	i	-32	-20	3	-6
COc1ccc(CN2C(=O)CCC2(C)C(=O)NC2CCCC2)c(OC)c1 (configuration not stated)	0	4	-11	i	6	-9	-10	8
Cc1nn(-c2ccccc2)c(Cl)c1C(=O)Nc1ccccc1	-2	1	-8	i	-46	-13	-5	-2
CC(C)C#Cc1cnc2c(c1)C(=O)N([C@@H](C)CO)C[C@@H](C)[C@H](CN(C)Cc1cccc(F)c1)O2	0	4	x	x	-25	-6&10&21	x	x
Cc1ccc(S(=O)(=O)c2nc(Nc3ccccc3C#N)sc2Cl)cc1	-7	-8	-9	i	43	x	-8	-2
Cc1onc(-c2ccccc2)c1C(=O)Nc1nc2c(s1)C(=O)CC(C)(C)C2	4	1	3	i	-68	9	-9	-8
Cn1c(/C(C#N)=C(\O)c2ccc(S(=O)(=O)N3CCCCC3)cc2)nc2ccccc21	10	0	-1	i	-34	-6	8	2
O=C(NCN1CCN(c2ccccc2)CC1)c1cnccn1	2	1	-8	i	11	-23	-17	-9
O=C(Nc1ccccc1)c1ccccc1CC[N+](=O)[O-]	5	1	-5	i	x	-24	x	-4
CC(=O)c1ccc(OCC(O)CN2CCN(CC(O)COc3ccc(C(C)=O)cc3)CC2)cc1 (configuration not stated)	5	8	-10	i	x	-4	-9	1
NC(=O)c1ccc(NC(=O)COC(=O)CCCN2C(=O)c3cccc4cccc(c34)C2=O)cc1	1	5	2	i	13	x	-4	0
CCOc1cc(N2CCOCC2)c(OCC)cc1NC(=O)COC(=O)COc1cc(C)cc(C)c1	-1	3	x	i	-10	-19	-3	x
O=C(Nc1ccccc1Cl)C1C2CCC3C(CCC21)C3(Cl)Cl (configuration not stated)	-1	1	-5	i	-8	x	7	-5
COc1ccc(S(=O)(=O)N2CCCCC2c2cc(C(=O)NCc3cccnc3)no2)cc1 (configuration not stated)	1	1	x	x	-7	-24	x	x
CCCn1c(NCCO)nc2ccccc21	2	2	5	i	x	-14	-2	4
ON=C1CCCC2CCCCC12 (configuration not stated)	0	2	x	x	-3	-22	x	x
COc1ccc(OC)c(/C(O)=C/C(=O)C(=O)Nc2ccccc2OC)c1	5	8	10	i	-12	-8	5	2
Cc1ccccc1NC(=O)c1cc([N+](=O)[O-])ccc1NCCN1C(=O)CCC1=O	0	0	-12	i	11	x	x	-2
O=C(CCCCn1c(=O)[nH]c2ccccc2c1=O)NCCc1c[nH]c2ccccc12	2	2	-18	i	27	-19	-12	-3
CC(=O)OCc1cc2cccc(C)c2[nH]c1=O	0	6	-4	i	-8	-21	-10	-11
O=C1CC[C@@H](OCc2ccccc2)CCN1CC[C@H](Sc1ccccc1)c1ccccc1	0	0	3	i	x	-10	41	-8
O=c1[nH]c(/C=C/c2cccc(Br)c2)nc2ccccc12	1	-7	x	i	-83	-3	-3	x
Cc1cccc(C(O)C(O)c2cccc(C)n2)n1 (configuration not stated)	0	2	x	x	13	-2	x	x
COc1ccc(-c2cc(C3CCN(C(=O)OC(C)(C)C)CC3)[nH]n2)cc1	-5	-5	2	i	29	x	7	-5
CCOC(=O)CN1C(=O)N[C@@H](c2cccs2)C(C(C)=O)=C1C	1	4	x	i	-2	-2	-10	x
COc1ccc(C(CNC(=O)c2ccc(S(=O)(=O)N3CC(C)CC(C)C3)cc2)N(C)C)cc1 (configuration not stated)	1	-1	x	x	-1	5	34	x
CCOC(=O)C1CCCN(C(=O)/C=C/c2ccccc2[N+](=O)[O-])C1 (configuration not stated)	3	8	-10	i	14	-9	7	-10
CC(C)NC1CS(=O)(=O)CC1O (configuration not stated)	0	1	0	i	x	x	x	7
O=C(Cn1nc(C(=O)O)c2ccccc2c1=O)NCCC1=CCCCC1	4	8	4	i	x	-13	6	4
COc1ccc(Cl)cc1NC(=O)CS(=O)(=O)c1cccc2nsnc12	-4	3	4	i	-26	-6	-2	-2
CCOc1c2ccc(C(=O)NCc3ccco3)cc2nn1CCOC	3	2	0	+	20	-7	-3	-3
O=C(CSc1ncn[nH]1)Nc1c(F)cc(F)cc1Br	1	5	4	i	-2	x	-9	-3
CCCCN1C(=O)/C(=C2/Sc3ccc(OC)cc3N2CC)SC1=S	-109	2	10	i	x	3	-7	-4
COc1ccc([C@@]2(O)c3c(ccc(CC=C(C)C)c3O)NC(=O)[C@@H]2OC)cc1	0	-1	26	i	x	4	-5	6
CC(=O)Nc1ccc(NC(=O)c2ccc(NC(=O)c3ccccc3)cc2)cc1	-1	-3	-1	i	1	-6	-9	9
Cc1cccc(CNS(=O)(=O)c2ccc(-c3cnc(C4CC4)o3)cc2)c1	1	-4	0	i	-14	-11	31	6
O=C(Nc1ccccn1)c1cccc(S(=O)(=O)N2CCCC2)c1	-1	4	-8	i	-11	2	1	2
Cc1ccc2cc(/C=N/NC(=O)[C@@H]3CCCN3)c(Cl)nc2c1	2	3	-8	i	-10	x	-3	2
Cc1ccc(O)c(NC(=S)NC(=O)/C=C/c2ccco2)c1	-1	1	-2	i	-111	-21	57	6
CC(=O)Nc1ccc(C(=O)Nc2nnc(CCc3ccccc3)s2)cc1	5	0	1	i	-16	-13	-11	13
O=C1OCCN1C(=O)[C@H]1[C@H](c2ccc([N+](=O)[O-])cc2)C(c2cccc(Cl)c2)=NN1c1ccccc1	1	-2	-3	i	4	-18	-4	-3
Cc1ccc(C(=O)Nc2cccc3cccnc23)cc1C	-3	2	-14	i	-39	-13	-12	1
Cc1ccc(S(=O)(=O)NCC(=O)OCc2cc(=O)oc3cc(C)ccc23)cc1	-1	3	x	x	-7	-11	-11	x
O=C(c1ccco1)N1CCN(C(=O)c2cn(-c3ccccc3)nc2-c2ccc(F)cc2)CC1	-1	3	x	x	-39	-4	x	x
C[C@@H]1O[C@@H](OC[C@H]2O[C@@H](Oc3c(-c4ccc(O)c(O)c4)oc4cc(O)cc(O)c4c3=O)[C@H](O)[C@@H](O)[C@@H]2O)[C@H](O)[C@H](O)[C@H]1O	4	2	19*	i	-18	14	-4	61*	eIF4H inh retest=78*;PABP polyA inh retest=59*
O=C(O)C/C(=C\c1cc(Cl)c2c(c1)OCO2)c1nc2ccccc2s1	-8	2	32	i	-11	-3	-2	94*	eIF4H inh retest=82*;PABP polyA inh retest=49
CN1CCN(c2nc(-c3ccccc3O)nc3ccccc23)CC1	-15	-7	-5	i	-7	x	9	1
O=C(COC(=O)CNC(=O)c1cccc(F)c1)NCCC1=CCCCC1	-1	2	1	i	-11	12	-8	-4
CCCCC1(CC)SCC(=O)NC1=O (configuration not stated)	2	3	x	x	-3	-8	x	x
C[C@@H](CSc1ccccc1)CN1CC[C@H](C(C)(C)C)CCC1=O	-4	-2	-9	i	x	20	-6	3

Grouped by structure, the compounds so far containing two or more sulfur atoms
SMILES	MT1-MMP act inh	MT1-MMP act inh RFP	PABP polyA inh	Rce1 inh	Env fusion inh	UUG fidelity	CSC inhib	eIF4H inh	others
CCSC1(SCC)N=C(N)C2(C#N)C(c3ccccc3)NC(C)=C(C)C12C#N (configuration not stated)	5	5	11	i	x	-12	x	14
Cc1ccc(S(=O)(=O)c2nc(Nc3ccccc3C#N)sc2Cl)cc1	-7	-8	-9	i	43	x	-8	-2
COc1ccc(Cl)cc1NC(=O)CS(=O)(=O)c1cccc2nsnc12	-4	3	4	i	-26	-6	-2	-2
CCCCN1C(=O)/C(=C2/Sc3ccc(OC)cc3N2CC)SC1=S	-109	2	10	i	x	3	-7	-4

More results:
SMILES	MT1-MMP act inh	MT1-MMP act inh RFP	PABP polyA inh	Rce1 inh	Env fusion inh	UUG fidelity	CSC inhib	eIF4H inh	others
CC1CCCCC1NC(=O)C1CCC(CNc2c(N3CCCCC3)c(=O)c2=O)CC1 (configuration not stated)	3	2	-3	i	16	x	-2	-6
Cn1c(C(O)c2ccc(Cl)cc2)nc(Cl)c1Cl (configuration not stated)	1	6	-2	i	-1	x	-17	-4
C=CCOc1ccc(C2C(C(=O)c3cccs3)=C(O)C(=O)N2c2nnc(C)s2)cc1 (configuration not stated)	-106	-6	x	x	-66	-3	x	x
COc1ccc(CC(=O)NCC2CCCN(Cc3cccc(SC)c3)C2)cc1 (configuration not stated)	0	-4	2	i	13	-8	-2	-15
CC(=O)c1c(C)[nH]c(C(=O)N2CCN(c3cc(Cl)ccc3C)CC2)c1C	-21	-28	-8	i	u	-18	43	-7
O=C(O)/C=C/C(=O)Nc1ccc(-c2ccccc2)cc1	0	3	5&11	i	-11	-21	x	-5&2
CNC(=S)N1N=C2c3ccccc3CCC2C1c1ccccc1Cl (configuration not stated)	-4	-8	1	i	6	x	57	6
O=C(Nc1ccccc1)Nc1nnc(-c2ccccc2)o1	-1	1	-1	i	-19	-13	-10	8
CCOC(=O)c1[nH]c(C)c(C(=O)NCCC2=CCCCC2)c1C	7	-2	-13	i	x	-8	-7	0
O=C(Nc1ccc([N+](=O)[O-])cc1Br)c1cccnc1	0	0	-2	i	-13	x	-7	1
O=C(N/N=C/c1ccco1)c1cc(=O)[nH]c2ccccc12	5	1	-1	i	5	x	-6	-2
CC(C)c1nc2oc3c(=O)[nH]cnc3c2c2c1COC(C)(C)C2	3	3	7	i	6	-15	-9	-4
C/C(N)=C(/C#N)C(=O)COC(=O)CCS(=O)(=O)c1ccccc1	-1	3	-5	i	-4	-6	2	2
O=C(Nc1ccc(Br)cc1F)c1ccc2c(c1)OCCO2	6	0	12	i	-122	-28	28	3
COC(=O)c1cc(C(=O)NC(C)(C)CC(C)(C)C)cc([N+](=O)[O-])c1	-1	-5	6	i	12	x	1	2
O=C1C2C3C=CC(C4CC34)C2C(=O)N1/N=C/c1ccc([N+](=O)[O-])s1 (configuration not stated)	1	1	1	i	-3	x	46	6
N=c1oc2ccccc2cc1C(=O)Nc1ccccc1	4	3	2	i	-59	2	2	-4
O=S(=O)(NCc1ccccc1)c1ccccc1NCCc1ccccc1	6	-5	x	x	-5	-22	x	x

An excerpt, so the mix of outcomes need not match the whole.
